PINK1 expr mod – PINK1 expression modulation; PINK1 immunofluorescence, high-content cytometry, 24 h; Potency, µM (highest dose often 76.6 µM), for the others: top-dose activation (PINK1 increase), usual class: activators; 0.2% of 410,000 active; active = well fitted activation curve with a large enough effect; inconclusive = small, poorly fitted or top-dose-only effect; inactive = flat fitted curve, though single readings scatter; cell line not stated here;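 note: potency is the fitted concentration of half-maximal effect; % of control where 0% means no effect; nearly all actives have a fitted effect of over 65% in size; a mitochondrial uncoupler was the plate control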
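Fluorescence from anti-PINK1 antibody, together with nuclear and cell stains, was scanned on a laser-scanning cytometer. Before staining, stable-line cells were incubated 24 hours with compounds at 5 concentrations; primary antibody 12 h at 10 degrees C.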
TRPML1 agonist – agonists of human TRPML1 channel; Q9GZU1; TRPML1-expressing cells, Ca2+ dye fluorescence, FDSS; host cell line not named in the record; reference of the full effect not given here; activation, % (concentration not given with the values); 0.12% of 410,000 active; AID 624414; in the data active = activation above about 50%; inconclusive = about 30% to 50%; inactive = below about 30%; note: 0% is about no effect; the text of the record puts the active cut at 80%
Target sequence (Q9GZU1 whole entry, looked up): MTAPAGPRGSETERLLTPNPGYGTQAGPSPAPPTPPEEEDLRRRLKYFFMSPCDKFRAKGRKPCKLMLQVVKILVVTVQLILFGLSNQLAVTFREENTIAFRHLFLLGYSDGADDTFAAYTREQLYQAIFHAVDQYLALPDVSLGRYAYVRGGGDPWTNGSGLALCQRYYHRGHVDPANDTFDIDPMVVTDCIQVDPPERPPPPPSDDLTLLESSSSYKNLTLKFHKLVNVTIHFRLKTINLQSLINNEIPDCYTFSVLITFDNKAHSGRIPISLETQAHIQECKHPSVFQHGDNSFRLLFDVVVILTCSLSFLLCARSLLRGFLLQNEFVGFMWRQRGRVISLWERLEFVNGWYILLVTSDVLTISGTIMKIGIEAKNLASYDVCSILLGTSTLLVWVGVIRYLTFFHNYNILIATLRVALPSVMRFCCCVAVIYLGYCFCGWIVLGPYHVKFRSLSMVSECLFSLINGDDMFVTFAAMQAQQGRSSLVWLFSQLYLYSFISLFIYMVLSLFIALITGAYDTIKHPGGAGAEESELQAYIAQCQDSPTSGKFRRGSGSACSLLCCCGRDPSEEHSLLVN
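Agonist activity was taken from a 110 s kinetic Ca2+ dye read on the FDSS after pinning compounds onto TRPML1-DL cells. The cells were seeded at 1,500/well with Tet inducer, incubated about 16 h, then dye-loaded at room temperature.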
CtBP-E1A blk – inhibitors of CtBP/E1A interaction; AlphaScreen GST-E1A/His-CtBP binding, 1536-well; stronger effect = lower value; control for the full effect not named in the record; activity change, % (no concentration beside the values); 0.49% of 340,000 active; AID 651724; in the data active means activity change below about -65%; inconclusive means about -30% to -65%; inactive means above about -30%; note: % is set by controls: 0 for no effect and ±100 for the full control effect; compound concentration not given in the record
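Homogeneous bead-based format: GST-tagged E1A captured on glutathione donor beads, His-tagged CtBP on nickel acceptor beads; compounds precede bead addition by 2 h at 37 °C.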
TRPML1 inh – inhibitors of human TRPML1 channel; Q9GZU1; TRPML1-inducible cells, Ca2+ dye fluorescence, FDSS; stronger effect = lower value; inhibition of EC80 agonist-evoked calcium signal; activity change, negative = inhibition, % (no concentration beside the values); 0.02% of 390,000 active; AID 624415; in the data active means activity change below about -50%; inconclusive means about -30% to -50%; inactive means above about -30%;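 note: stimulus is agonist 54-4 at its EC80 concentration; % is set by controls: 0 for no effect and ±100 for the full control effect; compound concentration not given in the record; the text of the record puts the active cut at -80%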
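Tet-induced TRPML1-DL cells loaded with Ca8 no-wash calcium dye were read kinetically on FDSS. Compound addition was followed by EC80 agonist 54-4 (4 uM final); inhibition was read over 110 s.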
Six1-Eya2 inh – inhibitors of human Six1/Eya2 interaction | AlphaScreen GST-Six1/His-Eya2 binding, biochemical; stronger effect = lower value; control for the full effect not named in the record | Q15475+O00167 | activity change, % (no concentration beside the values) | 0.56% of 360,000 active | AID 651725; in the data active = activity change below about -65%; inconclusive = about -30% to -65%; inactive = above about -30%; note: % is set by controls: 0 for no effect and ±100 for the full control effect; compound concentration not given in the record
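Six1/Eya2 binding was read as AlphaScreen signal after compounds were pinned into GST-Six1 plus His-tagged Eya2 (5X stock 250/500 nM) in pH 8.0 Tris/NaCl/TCEP buffer, beads added, then incubated 1 h, 37 C, dark.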
D2 ag – human D2 receptor agonism in beta-arrestin assay. DiscoveRx PathHunter D2 beta-arrestin, luminescence, 90 min; 100% = 57 uM dopamine signal. P14416. AID 624465. activation, % (test concentration not listed). 0.084% of 360,000 active; in the data active = activation above about 40%; inconclusive = about 15% to 40%; inactive = below about 15%; note: compound concentration not given in the record; the text of the record calls up to 30% inactive
Target sequence (P14416 whole entry, looked up): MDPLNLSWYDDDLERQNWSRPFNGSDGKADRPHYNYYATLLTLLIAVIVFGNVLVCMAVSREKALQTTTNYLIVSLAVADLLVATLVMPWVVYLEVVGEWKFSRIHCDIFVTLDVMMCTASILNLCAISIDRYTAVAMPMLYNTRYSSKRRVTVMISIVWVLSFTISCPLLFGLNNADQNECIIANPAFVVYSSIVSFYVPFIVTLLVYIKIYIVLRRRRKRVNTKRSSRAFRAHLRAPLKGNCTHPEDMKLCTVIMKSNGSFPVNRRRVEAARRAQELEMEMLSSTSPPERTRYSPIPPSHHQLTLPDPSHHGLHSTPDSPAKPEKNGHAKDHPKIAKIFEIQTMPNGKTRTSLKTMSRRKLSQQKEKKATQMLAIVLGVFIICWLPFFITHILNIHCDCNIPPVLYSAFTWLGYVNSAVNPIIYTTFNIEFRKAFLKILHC
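DiscoveRx PathHunter D2 beta-arrestin cells (2,100/well) attached overnight, then compound-stimulated 90 min at 37 C in HBSS/10 mM HEPES/0.1% Tween-20 buffer; beta-galactosidase complementation read by luminescence after 1 h at ambient temperature. Dopamine 57 uM final (EC100) as control.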
Active calls of the source: *; ? = inconclusive; nt = no result given; [ ] = another dose, or the depositor's remark.

SMILES | PINK1 expr mod | TRPML1 agonist | CtBP-E1A blk | TRPML1 inh | Six1-Eya2 inh | D2 ag
C/C(=N\NC(=O)c1nnn(-c2nonc2N)c1CN(C)c1ccccc1)c1ccccc1O | -0.3% | 0.3 | -16 | -5 | -10 | -0.7
CNc1nc(C)c(C#N)c(-c2ccccc2)c1C(C)=O | -1.1% | 2.1 | -1 | -9 | 3 | -1.0
CCc1nnc(NC(=O)c2ccc(S(C)(=O)=O)cc2)s1 | 0.5% | nt | 1 | nt | 2 | -5.0
CCOc1ccc(-c2[nH]ncc2Oc2ccccc2OCC)c(O)c1 | 5.7% | 1.6 | -2 | 12 | -2 | -5.0
COc1ccc(Cl)cc1NC(=O)CSc1nccn1Cc1ccco1 | 20% | 2.1 | nt | 51 | nt | nt
Cc1cc(C)n2nc(C(=O)N3CCOCC3)nc2n1 | 0.8% | 0.3 | 8 | 2 | 14 | 1.6
CCOC(=O)N1CCN(C(=O)C(C)SCc2ccccc2)CC1 (stereo not given) | 2.3%[38.3 µM] | -0.2 | 6 | -1 | -2 | -1.1
O=C(Nc1ccc(Cl)cc1)NC1(C(=O)NCCCN2CCOCC2)CCCCC1 | -0.7% | -0.9 | 3 | -2 | -5 | -3.4
Cc1ccc(Nc2c([N+](=O)[O-])ccc3c2=NC2(CCCCC2)N=3)cc1 | 16% | 6.5 | -27 | 28 | ? | 5.3
COc1ccc(OC)c(NC(=O)CSc2cn(CC(=O)N3CCOCC3)c3ccccc23)c1 | 0.1% | -0.3 | nt | -7 | nt | nt
Nc1nnc(SCc2ccc(F)cc2)s1 | -1.6%[38.3 µM] | 2.5 | 18 | 47 | 3 | -2.2
COc1ccc(CCNC(=O)c2cc3c(=O)n4cccc(C)c4nc3n(Cc3ccco3)c2=N)cc1OC | 11% | -0.4 | 2 | -4 | 19 | -2.9
CCN(CC)C(=O)C1=C(C)N(Cc2ccc(F)cc2)C(=O)C(CC(=O)NCCN2CCOCC2)C1 (stereo not given) | 0.2% | nt | -9 | nt | -3 | 0.1
Cc1ccc(S(=O)(=O)CC(=O)Nc2ccccn2)cc1 | -1.5% | 0.6 | -2 | 0 | -2 | -1.7
COc1ccc(NC(=O)Cc2c(Sc3ccccc3)c3ccccc3n2C)cc1 | 7.5% | 1.1 | 0 | 9 | -10 | 0.7
CCCCCC(=O)N1CC2(CC)CN(C(=O)CCCCC)CC(CC)(C1)C2=O | 0.2% | 0.7 | 8 | -6 | 6 | 0.4
COc1ccc(CC(C)Nc2cccc(SC)c2)cc1 (stereo not given) | 0.6% | 0.3 | nt | 11 | -8 | 2.5
COc1cc(CNCc2cc(OC)c(OC)c(OC)c2)cc(OC)c1 | 0.6% | 1.8 | 8 | -4 | -3 | -0.7
Cc1cc(C)n(CC(C)O)c(=O)c1C#N (stereo not given) | -1.6%[38.3 µM] | 0.2 | 2 | -7 | 5 | -0.7
CCN(C(=O)CSc1nnc(-c2ccncc2)n1Cc1ccccc1)C1CCS(=O)(=O)C1 (stereo not given) | 0.1% | 0.4 | -2 | -13 | -14 | -4.7
COc1ccc(CCNC(=O)CCCN2C(=O)c3ccccc3C2=O)cc1OC | nt | 0.2 | 2 | 0 | 5 | 1.5
O=C(NCCCCc1ccccc1)c1nn(-c2ccccc2)nc1CO | -1.6% | 4.7 | nt | 18 | nt | nt
Cc1c(NC(=S)NC(=O)C(c2ccccc2)c2ccccc2)cccc1C(=O)O | -19%[38.3 µM] | -0.3 | -4 | 1 | -9 | -5.8
COc1ccc(-c2nc(CSCC(=O)NCCC(C)C)c(C)o2)cc1OC | 3.5% | 0.3 | nt | 5 | nt | nt
Cc1c(C(=O)Nc2ccccc2-c2ccccc2)cccc1[N+](=O)[O-] | 5.8%[38.3 µM] | 2.5 | -3 | 9 | -1 | 0.6
CCN(C(=O)c1c(-c2ccccc2Cl)noc1C)C1CCCCC1 | 1.2% | -0.6 | -11 | 7 | -5 | -2.3
COc1ccc([N+](=O)[O-])c(OC)c1C(=O)Nc1ccc(F)cc1F | 0.7% | 0.2 | -5 | -5 | 9 | -0.3
O=C(Nc1ccc2ccccc2c1)c1ccc(Cl)cc1 | 1.3% | nt | nt | nt | 11 | -9.9
CCOC(=O)Cc1c[nH]c(=S)[nH]c1=O | -0.7% | -0.3 | 3 | -11 | 18 | -5.3
O=C(COC(=O)c1ccncc1)c1ccccc1 | 1.1% | -0.2 | 0 | 3 | 4 | -13
Cc1c(N=C2SCC(=O)N2c2c(C)n(C)n(-c3ccccc3)c2=O)c(=O)n(-c2ccccc2)n1C | -4.6%[38.3 µM] | 0.0 | 7 | 8 | 9 | 1.6
CCCCNC(=O)c1onc(CSc2ccccn2)c1C(=O)NCCCC | 1.8% | 0.1 | 10 | -11 | -11 | -2.4
COc1ccc(C2CC(=O)C=C(NCCC(C)C)C2)cc1 (stereo not given) | 0.7% | -0.7 | 4 | 39 | 0 | -2.3
CC(C)(C)CN1CCNC(=O)C1CC(=O)NC1Cc2ccccc2C1 (stereo not given) | 1.3% | -0.2 | 9 | 4 | 8 | -0.1
Cc1ccc(NC(=O)C(OC(=O)c2cc(C)oc2C)c2ccccc2)cc1 (stereo not given) | 14% | 1.6 | -3 | -27 | -4 | 3.6
CCCCCN(C(=O)CCC(=O)OCc1ccccc1Cl)c1c(N)n(CCCC)c(=O)[nH]c1=O | 4.0% | 1.0 | 1 | 3 | 24 | -5.2
CC(=O)Nc1sc(N/N=C/c2ccccc2F)nc1-c1ccc(C)cc1 | 0.4% | 1.2 | nt | 9 | 0 | 41*
NS(=O)(=O)c1c(Sc2ccccc2C(=O)O)ccc2ccccc12 | 1.4% | -0.5 | nt | 25 | 8 | 0.8
CCOC(=O)c1cc2c(=O)[nH]ccc2nc1C(F)(F)F | 1.7% | 0.1 | -2 | 26 | -3 | -2.5
c1ccc(-c2cn(-c3ccccc3)c3ncnc(NCCCN4CCOCC4)c23)cc1 | -2.0% | -0.1 | -9 | 33 | -2 | -3.9
O=C(CNCc1ccc(F)cc1)Nc1cc(S(=O)(=O)N2CCOCC2)ccc1Cl | -0.2% | -0.5 | -10 | 1 | -3 | 8.3
Cc1cc(C)n2nc(SCC(=O)c3ccc[nH]3)nc2n1 | -0.9% | -0.5 | -13 | -25 | ? | 4.1
O=C(COC(=O)Cn1cnc2ccccc2c1=O)NNC(=O)c1ccc(Br)cc1 | 2.1% | -0.6 | -2 | -1 | 0 | -2.7
Cc1nn2c(=O)cc(COC(=O)c3ccc(NC(=O)COc4ccc(C)c(C)c4)cc3)nc2s1 | 1.2% | 1.6 | nt | 16 | nt | nt
Cc1ccn2c(=S)[nH]nc2c1 | 0.2% | -0.4 | 3 | 3 | 1 | -6.0
CN(C)S(=O)(=O)c1cccc(C(=O)OCC(=O)Nc2sccc2C(N)=O)c1 | 2.0% | -0.8 | -11 | 15 | -14 | 2.5
Cc1cc(C)n(-c2nnc(Nc3ccc(C)c(C)c3)c3ccccc23)n1 | -1.8% | 0.3 | nt | -15 | nt | nt
COc1ccc(S(=O)(=O)N2CCC(C(=O)NCc3ccncc3)CC2)cc1OC | 1.0% | 0.6 | 3 | -16 | 3 | -0.8
Cc1cccc(C(=O)NNC(=O)c2ccc(Cl)cc2)c1O | -1.8% | -0.9 | -1 | -5 | -4 | -1.0
O=C(COc1ccccc1)Nc1ccc(S(=O)(=O)N2CCOCC2)cc1 | 2.1% | -0.3 | 0 | 17 | 9 | -0.9
Cc1cccc(N2CCN(C(=O)c3ccc(CS(=O)(=O)c4ccccc4C)o3)CC2C)c1 (stereo not given) | nt | -0.1 | -7 | -18 | 1 | -0.6
O=C1c2[nH]c(=O)[nH]c(=O)c2CN1Cc1ccccc1 | -0.6% | 0.6 | 16 | 17 | 4 | -2.2
COC1Cc2ccccc2N(C(N)=O)c2ccccc21 (stereo not given) | -1.2% | -0.3 | 0 | 2 | 15 | -4.2
COc1cc(Cl)cc(C2NC(=O)NC(C)=C2C(C)=O)c1OCC(=O)O (stereo not given) | -0.6%[38.3 µM] | -0.3 | -4 | 1 | -3 | 3.0
Cc1[nH]nc2c1C(c1ccsc1C)C(C#N)=C(N)O2 (stereo not given) | -1.2%[38.3 µM] | 0.2 | 1 | 0 | -4 | 1.6
CS(=O)(=O)N1CCCCC1CCN1CCCCC1 (stereo not given) | -0.8% | 0.1 | 5 | -6 | 2 | -2.5
Cc1cc(NC(=O)c2ccco2)cc(-c2nc3ccccc3o2)c1O | 3.2% | 0.7 | nt | -17 | nt | nt
CCn1c(SCc2ccc(C)cc2)nnc1-c1cnccn1 | -1.8% | 1.2 | -3 | 7 | 3 | 0.2
COc1ccc(-c2ccc(CCC(=O)O)n2CC(=O)Nc2cccc(Cl)c2C)cc1 | -0.4% | 1.3 | nt | 15 | nt | nt
CS(=O)(=O)N(CCC#N)Cc1ccc(/C=C2\C(=O)Nc3ccccc32)o1 | -1.1% | 0.0 | -4 | 5 | -3 | -2.8

Next results
SMILES | PINK1 expr mod | TRPML1 agonist | CtBP-E1A blk | TRPML1 inh | Six1-Eya2 inh | D2 ag
O=C(Oc1cc(=O)oc2ccccc12)c1ccco1 | 0.6% | 1.5 | -1 | 6 | 0 | -5.1
N#CC(c1nc2ccccc2nc1N1CCOCC1)S(=O)(=O)c1ccccc1 (stereo not given) | -0.7% | 0.8 | -4 | 7 | -3 | -1.1
COc1ccc(N=C2c3ccccc3-c3ccc([N+](=O)[O-])cc32)cc1 | 2.7% | 1.0 | -30 | -19 | ? | 2.8
CSc1nc(N)nc(-c2cccs2)c1C#N | -0.7% | 1.7 | -8 | 3 | -15 | -0.8
CN(c1ccccc1)S(=O)(=O)c1cc(C(=O)OCC(N)=O)ccc1Cl | 2.9% | 0.7 | nt | -21 | -7 | -1.8
COc1ccccc1NC(=O)Nc1cccc(NC(C)=O)c1 | 2.7% | -0.1 | -6 | 61 | 0 | -2.9
c1ccc(SCc2nc(-c3ccccn3)no2)cc1 | -0.1% | -1.3 | 1 | 38 | 8 | 0.1
O=C(CCCCn1ccc(=O)[nH]c1=O)Nc1ccc(C(=O)O)c(O)c1 | -1.2% | -0.2 | 6 | -8 | 2 | -0.2
CCC(CC)C(=O)Nc1cccc(-c2nc3cccnc3s2)c1 | 2.3% | -0.4 | nt | -3 | nt | nt
CC1Cc2cc(S(=O)(=O)N3CCN(C)CC3)ccc2N1C(=O)C1CC1 (stereo not given) | 0.2% | -0.1 | -13 | -20 | 5 | -4.9

Complete entries as entered above. Order of screens: PINK1 expr mod	TRPML1 agonist	CtBP-E1A blk	TRPML1 inh	Six1-Eya2 inh	D2 ag
`CC1Cc2cc(S(=O)(=O)N3CCN(C)CC3)ccc2N1C(=O)C1CC1` (stereo not given) as listed: 0.2%	-0.1	-13	-20	5	-4.9
`N#CC(c1nc2ccccc2nc1N1CCOCC1)S(=O)(=O)c1ccccc1` (stereo not given) as listed: -0.7%	0.8	-4	7	-3	-1.1
`O=C(Oc1cc(=O)oc2ccccc12)c1ccco1` as listed: 0.6%	1.5	-1	6	0	-5.1
